# RN4220 kill: S. aureus RN4220 growth inhibition | OD600, 16 h | 330,000 compounds, 0.33% hits | AID 1259311 | inhibition, % (concentration not given with the values);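 active = z-score of -3 or lower and OD600 up to 0.18 on both plates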;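 note: plate controls were untreated cells for no effect and reference antibiotic for full effect; stock transfer was 100 nL into about 80 µL; one replicate is shown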
# BJeLR lethal: BJeLR cell viability loss; BJeLR (HRASV12) viability, CellTiter-Glo ATP luminescence, 48 h; reference of the scale not given here; AID 1554; 300,000 compounds, 0.17% hits; inhibition, % (no concentration beside the values);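 active = replicate mean above 50%; inconclusive = above 50% but judged a plate artefact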;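 note: 50 nL library stock added to about 25 µL; numbers are from one replicate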
# ugtP null kill: kills S. aureus RN4220 lacking UgtP. 330,000 compounds, 0.54% hits. S. aureus RN4220 ugtP deletion, OD600 growth, 16 h; some inactives read as strong as hits. AID 1259309. growth inhibition, % (test concentration not listed);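 active = z-score under -3 and OD600 up to 0.15 on both plates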;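 note: plate controls were untreated wells for no effect and antibiotic for full effect; wells of about 80 µL received 100 nL stock; the first replicate is given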
# Mtb hypoxia rep: Mtb hypoxia fluorescent reporter inhibition; fluorescence inhibition, % (test concentration not listed); AID 1159583; 300,000 compounds, 0.1% hits; M. tuberculosis hypoxia-regulated fluorescent reporter, fluorescence;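 active = 35 to 45% if threefold the growth effect, above 45% if 1.5-fold the growth effect; inactive = the rest, general growth blockers included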;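 note: wells of about 50 µL received 100 nL stock; 0% = vehicle wells and 100% = reference inhibitor wells; whole bacteria with a GFP reporter of the hypoxia response; strong numbers were not always called active; many hits fall short of the cut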
# Autofluor counter: compound fluorescence in toxin protease inhibitor counterscreen; fluorescence intensity (test concentration not listed); compound autofluorescence counterscreen, microsphere flow cytometry; active compounds read high; AID 624483; 360,000 compounds, 3.1% hits;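 active = at least 3 SD above the mean of all compounds, about 16000 in these data; inconclusive = too few beads counted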;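 note: 100 nL of 1 mM stock went into each well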
# PrP UTR inh: suppresses PrP 5' UTR mRNA reporter expression | cell-based PrP 5' UTR mRNA reporter, plate reader | inhibition, % (no concentration beside the values) | 340,000 compounds, 0.35% hits;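 active = every replicate at 50% or more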;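 note: 0 = median of the neutral control wells; tested in H4 reporter cells; numbers are from one replicate; inactives centre near -14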
# Mtb hypoxia rep growth: recorded beside Mtb hypoxia rep, whose call it bears; growth inhibition, %; measured here: M. tuberculosis growth (absorbance);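 0% = vehicle and 100% = reference antibiotic; read after six days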
# Numbers without * were called inactive; ? = inconclusive; nt = not tested or not shown. Rows were taken by chance; 4% or so of the library scored in one or more.
molecule	Mtb hypoxia rep	RN4220 kill	BJeLR lethal	Autofluor counter	Mtb hypoxia rep growth	PrP UTR inh	ugtP null kill
COc1ccccc1N(CC(=O)N1CCCCCC1)S(C)(=O)=O	0.9	7.0	-1.5	10007	3.6	-31.1	14.3
O=C(Nc1ccccc1)c1ccc(CN2CCc3ccccc3C2)cc1	-6.2	5.3	7.3	4170	-2.4	-41.5	16.0
CSc1nc2c(c(=O)n1-c1ccccc1)SCC2	5.7	4.6	-1.2	9562	9.5	-17.9	12.0
Cc1cc(C(=O)N/N=C/c2ccccc2[N+](=O)[O-])c(C)o1	nt	nt	-1.1	4224	nt	-44.9	nt
COc1ccc(Nc2nnc(SC(C)C(=O)NC3CC3)s2)cc1 (stereo not drawn)	7.4	3.9	nt	3372	6.1	-23.9	3.7
COc1ccc(-c2nnnn2-c2ccc(F)cc2F)cc1	-9.2	1.1	6.3	1981	0.5	-12.0	-6.8
N#CSC(c1ccccc1)c1nc2ccccc2[nH]c1=O (stereo not drawn)	1.3	2.8	-14.5	3491	9.4	1.4	1.2
O=C(O)CCNC(=O)c1cncc(Br)c1	8.2	4.1	3.4	7651	2.7	-98.6	9.2
O=C(NC1CCCC1)c1cc(-c2ccccc2)on1	21.4	5.8	-3.1	3553	24.6	-79.3	-2.8
Fc1ccc(-c2noc(-c3ccc4c(c3)CCO4)n2)cc1	-9.3	-8.6	7.1	4098	-3.0	-61.2	-15.1
CCC1(C)Cc2sc3c(=O)[nH]c(=S)[nH]c3c2CO1 (stereo not drawn)	-0.2	0.7	9.6	2153	-7.4	-10.7	-2.9
COc1ccc(-c2cc(CNS(=O)(=O)c3ccc(NC(C)=O)cc3)on2)cc1	nt	nt	4.1	6367	nt	-19.6	nt
O=[N+]([O-])c1ccccc1OC/C(=N\O)c1ccccc1	nt	nt	-8.5	3629	nt	-14.2	nt
Clc1ccccc1CON=C1CCCc2nonc21	12.0	8.0	nt	nt	14.3	nt	9.2
CS(=O)(=O)N(CC(=O)N1CCN(Cc2ccc3c(c2)OCO3)CC1)c1ccc2c(c1)OCO2	4.3	-1.7	-3.1	9286	-6.7	-19.6	2.3
COC(=O)c1ccc(C=NNC(=O)CCSc2nc3ccccc3s2)cc1	9.4	1.9	nt	nt	-6.9	nt	6.4
C=CCSc1nc(N)cc(=O)[nH]1	9.2	0.5	-13.2	4827	-6.0	-20.2	6.5
O=C(Nc1cccc2c1CCCC2)c1cccc(F)c1	nt	3.9	6.4	3232	nt	-13.2	13.0
C=C1CCC[C@]2(C)C[C@H]3OC(=O)C(CNCC(OC)OC)[C@H]3CC12 (stereo partly drawn)	12.1	2.8	-6.4	4175	-0.6	-8.1	-1.3
O=C(COc1ccc(Cl)cc1)OCC(=O)N1CCCc2ccccc21	0.5	5.4	-16.0	2372	21.8	-11.7	1.0
Cc1ccc2c(COC(=O)c3ccccc3OC(F)F)cc(=O)oc2c1	-1.6	-1.0	3.9	5127	4.6	-21.8	4.2
O=C(O)COc1ccc2c(c1)CCCC2	4.4	5.9	10.6	10361	7.4	0.5	6.8
COc1cc(CC(NC(C)=O)C(=O)NC2CCN(c3c4c(nc5ncnn35)CCC4)CC2)cc(OC)c1 (stereo not drawn)	-1.9	2.8	3.9	nt	-3.3	nt	4.0
CCN1CCN(C(=O)c2ccc(N3CC4CC(C3)c3cccc(=O)n3C4)c([N+](=O)[O-])c2)CC1 (stereo not drawn)	4.0	-0.2	-10.5	4388	0.7	-14.8	6.9
CCOC(=O)c1c(C)[nH]c(=S)c(C#N)c1-c1ccc(Cl)cc1	8.0	4.2	23.4	2235	8.2	-11.6	-6.8
Cc1ccc(NC(=O)N(Cc2ccco2)C(C)c2ccco2)cc1C (stereo not drawn)	14.2	2.4	-1.8	6898	-4.4	-7.1	16.5
COc1cc(/C(C)=N/NC(=O)CSc2nnc(C)s2)ccc1O	nt	nt	-1.1	4892	nt	-28.5	nt
O=C(Nc1nnc(-c2ccc(Br)cc2)o1)c1ccco1	4.4	32.3	3.6	5366	5.4	-15.5	8.2
COc1cc2nc(CN(C)Cc3ccc(C(C)(C)C)cc3)[nH]c(=O)c2cc1OC	4.9	4.9	8.5	6689	7.9	-3.0	7.9
COc1ccc(C(=O)Nc2c(N)nc(SCC(=O)Nc3ccc(C(C)=O)cc3)[nH]c2=O)cc1	0.3	6.4	-1.6	5052	-3.6	-6.7	0.9
O=C(Nc1nc2ccccc2n1CCN1CCCC1)C1CCCCC1	nt	-2.3	3.4	3877	nt	-16.9	1.4
N#Cc1cc([N+](=O)[O-])c(-n2nnc3ccccc32)c([N+](=O)[O-])c1	8.4	3.4	-8.0	4249	4.5	-27.0	-0.8
O=C(N/N=C/c1ccncc1)c1cc([N+](=O)[O-])cc([N+](=O)[O-])c1	nt	nt	1.6	1995	nt	4.3	nt
O=C(CNS(=O)(=O)c1ccccc1)Nc1cccc([N+](=O)[O-])c1	8.2	-0.7	9.3	4171	1.0	-21.4	-0.1
CCOC(=O)c1cnn(CCOC(=O)C2CC2)c1NC(=O)C1CC1	15.9	5.0	0.5	20293*	11.1	-39.9	-0.4
Cc1cccc(NC(=O)CCc2nnc3ccc(N4CCC(C)CC4)nn23)n1	10.3	3.6	-0.7	5576	9.0	-24.7	4.7
CCC(O)(C(=O)Nc1ccccc1C(F)(F)F)c1ccccc1OC (stereo not drawn)	9.5	4.3	nt	2978	8.6	5.5	2.1
Cc1sc2nc(C3CC3)nc(NCCNS(C)(=O)=O)c2c1C	nt	2.7	-3.1	4695	nt	-13.6	-0.8
O=C(NS(=O)(=O)c1ccccc1[N+](=O)[O-])c1ccccc1	5.4	1.0	0.9	5542	7.4	-2.2	2.3
O=C(O)CSCC(=O)Nc1ccc(C2CCCCC2)cc1	-4.9	2.9	-11.5	11336	-1.0	52.7*	1.5
COc1ccc(O)c(CN2CCCC(N3CCN(c4ccccc4OC)CC3)C2)c1 (stereo not drawn)	-0.2	-0.4	-1.7	3068	-5.5	-39.6	4.0
Cc1cc(=O)oc2cc(OCc3ccc(C(=O)OCC(=O)N(C)C4CCS(=O)(=O)C4)cc3)ccc12 (stereo not drawn)	-4.2	1.9	9.8	5083	-0.3	1.6	-5.5
Nc1nc(NCCCN2CCOCC2)nc(NCc2ccccc2)c1[N+](=O)[O-]	2.0	2.3	8.5	4407	-6.0	-0.7	0.5
CCc1ccccc1Nc1nc2ccccc2n1C	-9.1	0.1	-18.0	4456	7.5	0.0	-1.6
NC(=O)CS(=O)(=O)c1nc2ccccc2n1Cc1ccccc1F	13.2	2.3	-5.1	3221	6.4	-5.7	0.7
COc1ccc(C(=O)c2cn[nH]c2-c2cc(C)ccc2O)cc1	5.6	-1.7	-18.3	2971	4.7	-25.8	-3.2
O=C(CN(C1CCCCC1)S(=O)(=O)c1ccc(F)cc1)NC1CC1	7.6	2.0	1.2	10525	2.4	-32.6	0.8
CC1(C)CC(CC(=O)O)C(=O)O1 (stereo not drawn)	-1.3	-2.9	-2.8	4100	-13.9	-12.8	-1.7
COC(=O)c1cccc(NC(=O)CN2CCN(Cc3ccccc3)CC2)c1	10.0	4.7	4.3	3798	5.0	-7.1	9.1
Cc1ccc(C(=O)CCC(=O)OCC(=O)Nc2nnc(-c3ccccc3)o2)cc1	3.1	-0.2	nt	?	-0.5	-23.3	-0.5

# Continued:
molecule	Mtb hypoxia rep	RN4220 kill	BJeLR lethal	Autofluor counter	Mtb hypoxia rep growth	PrP UTR inh	ugtP null kill
N=c1c(C(=O)NC2CCCC2)cc2c(=O)n3ccccc3nc2n1Cc1ccccc1	0.0	2.7	5.6	6002	6.4	-5.0	2.5
COc1cc(C(C(=O)NC2CCCCC2)N(C(=O)c2cnccn2)c2ccccc2)cc(OC)c1OC (stereo not drawn)	-2.4	3.2	-12.6	4542	-7.3	11.4	4.7
CC(=O)Nc1cccc(C(=O)Nc2cccc(S(=O)(=O)NCc3ccco3)c2)c1	23.9	-0.7	nt	4117	10.3	-21.8	2.4
COc1cc(Nc2c3c(nc4ccccc24)CCC3)cc(OC)c1OC	4.2	-2.8	46.0	3737	9.9	50.4	6.8
COC(=O)C1=C(c2ccccc2)C[C@@H]2CC[C@H]1N2C(=O)NCc1ccc(F)cc1	nt	nt	-2.3	4009	nt	-30.4	nt
OC(COc1c(F)cc(Br)cc1F)CN1CCc2ccccc2C1 (stereo not drawn)	-6.2	1.3	2.1	3844	-6.0	10.0	4.0
O=C(CSc1nnc(-c2ccccc2)o1)c1nnc(-c2ccccc2)o1	-3.6	18.4	-4.3	3462	12.7	-7.2	-5.6
CN(C)CCCN(Cc1ccccc1)C(=S)NCc1ccccc1	18.0	0.5	8.0	4103	2.4	-16.5	7.4
O=C1C(Cl)=C(N2CCOCC2)C(=O)N1c1ccc(Br)cc1	6.2	4.7	-2.4	3779	3.0	2.6	1.5
COC(=O)C1=CN(C(C)c2ccccc2)C=C(C(=O)OC)C1c1cc(OC)c(OC)c(OC)c1 (stereo not drawn)	-13.1	0.5	4.9	3965	-2.5	-11.0	0.7

# Exported with two lines to a compound: entries from further up.
# Values run as follows: Mtb hypoxia rep | RN4220 kill | BJeLR lethal | Autofluor counter | Mtb hypoxia rep growth | PrP UTR inh | ugtP null kill
COc1ccc(-c2cc(CNS(=O)(=O)c3ccc(NC(C)=O)cc3)on2)cc1
→ nt | nt | 4.1 | 6367 | nt | -19.6 | nt
O=C(NS(=O)(=O)c1ccccc1[N+](=O)[O-])c1ccccc1
→ 5.4 | 1.0 | 0.9 | 5542 | 7.4 | -2.2 | 2.3
COC(=O)C1=C(c2ccccc2)C[C@@H]2CC[C@H]1N2C(=O)NCc1ccc(F)cc1
→ nt | nt | -2.3 | 4009 | nt | -30.4 | nt

# Four entries from above, field by field.
CC(=O)Nc1cccc(C(=O)Nc2cccc(S(=O)(=O)NCc3ccco3)c2)c1
  Mtb hypoxia rep: 23.9; RN4220 kill: -0.7; BJeLR lethal: nt; Autofluor counter: 4117; Mtb hypoxia rep growth: 10.3; PrP UTR inh: -21.8; ugtP null kill: 2.4
COc1cc(Nc2c3c(nc4ccccc24)CCC3)cc(OC)c1OC
  Mtb hypoxia rep: 4.2; RN4220 kill: -2.8; BJeLR lethal: 46.0; Autofluor counter: 3737; Mtb hypoxia rep growth: 9.9; PrP UTR inh: 50.4; ugtP null kill: 6.8
COC(=O)C1=C(c2ccccc2)C[C@@H]2CC[C@H]1N2C(=O)NCc1ccc(F)cc1
  Mtb hypoxia rep: nt; RN4220 kill: nt; BJeLR lethal: -2.3; Autofluor counter: 4009; Mtb hypoxia rep growth: nt; PrP UTR inh: -30.4; ugtP null kill: nt
OC(COc1c(F)cc(Br)cc1F)CN1CCc2ccccc2C1 (stereo not drawn)
  Mtb hypoxia rep: -6.2; RN4220 kill: 1.3; BJeLR lethal: 2.1; Autofluor counter: 3844; Mtb hypoxia rep growth: -6.0; PrP UTR inh: 10.0; ugtP null kill: 4.0

# The list goes on.
molecule	Mtb hypoxia rep	RN4220 kill	BJeLR lethal	Autofluor counter	Mtb hypoxia rep growth	PrP UTR inh	ugtP null kill
C[C@H](NC(=O)c1nc[nH]c1C(=O)NCC(=O)OC(C)(C)C)c1ccccc1	10.8	-7.5	5.4	3673	4.7	-9.7	-7.9
C=CCNc1nc(C2(C)CC3(CC(C)OC3=O)C(=O)O2)cs1 (stereo not drawn)	7.7	3.6	-10.4	6470	7.6	-17.3	8.2
O=C(CCNC(=O)c1ccc(Cl)cc1)NN1C(=O)NC2(CCCCC2)C1=O	-2.1	4.6	nt	nt	-2.6	-13.0	2.6
O=C(Nc1ccc(OC(F)F)c(Cl)c1)c1ccccn1	11.6	11.8	-3.2	3608	9.8	-89.3	3.0
COc1cccc(CNC(=S)Nc2cc(C)cc(C)c2)c1	2.9	0.5	3.0	4642	-2.5	-26.7	5.8
Nc1ccc(S(=O)(=O)NCC(=O)OC2CCOC2=O)cc1[N+](=O)[O-] (stereo not drawn)	4.6	4.5	nt	3756	-2.2	-10.6	8.9
O=C(CCc1ccccc1)NNC(=O)c1ccc(Br)cc1	6.9	4.8	-7.1	3682	9.2	-19.3	2.7
CN(C(=O)CSc1nc(-c2ccccc2)cn1N)C(c1ccccc1)c1ccccc1	-0.7	0.6	-4.1	24699*	2.6	0.7	-12.7

# Screens as filed in PubChem BioAssay.
